Vaccinia inh: Vaccinia orthopox stage-specific inhibition | Vaccinia-infected cells, mCherry/Venus stage reporter fluorescence; active compounds read low; some inactives read as strong as hits | activity change (mCherry), % (test concentration not listed) | 0.01% of 89,000 active | AID 1053133;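 active means mCherry past -33% and 40 or more points under the early reporter, replicates agreeing; inconclusive means past -33% without that gap or agreement; tested in A549 cells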;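 further: scaled between vehicle wells and reference inhibitor wells; 23 nL library stock went into each well; one replicate is shown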
Vaccinia inh Venus: further read-out of Vaccinia inh, marked with its call; activity change (Venus), %; measured here: Venus reporter, other viral stage;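 negative = less Venus signal; first of two replicates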
Numbers without * were called inactive; ? = inconclusive; . = not tested or not shown.

SMILES | Vaccinia inh | Vaccinia inh Venus
C[C@@H]1CCCCO[C@@H](CN(C)Cc2ccc(C(=O)O)cc2)[C@H](C)CN([C@H](C)CO)C(=O)c2cc(NC(=O)Nc3ccc4c(c3)OCO4)ccc2O1 | 16.8 | 11.6
CCCc1cn(CC[C@@H]2CC[C@@H](NC(=O)Nc3ccc4c(c3)OCO4)[C@@H](CO)O2)nn1 | 20.0 | 16.9
COc1cccc(CNC(=O)C[C@H]2C=C[C@H](NC(C)=O)[C@@H](CO)O2)c1 | 7.2 | 7.3
COc1cccc(NC(=O)N[C@H]2CC[C@@H](CC(=O)N3CCCCC3)O[C@@H]2CO)c1 | 15.9 | 7.4
Cc1noc(C)c1NC(=O)N(C)C[C@@H]1Oc2ccc(NC(=O)CCN3CCOCC3)cc2C(=O)N([C@@H](C)CO)C[C@H]1C | 18.3 | 4.4
C[C@H]1CN([C@@H](C)CO)C(=O)c2cccc(NC(=O)c3nc4ccccc4s3)c2O[C@@H]1CN(C)S(=O)(=O)c1cccs1 | -5.6 | -7.0
C[C@@H]1CN([C@@H](C)CO)C(=O)c2cc(NC(=O)CCCN(C)C)ccc2O[C@@H](C)CCCCO[C@H]1CN(C)C(=O)Nc1cccc2ccccc12 | 15.0 | 18.2
CCCN(C)C[C@H]1Oc2cc(C#CCC(C)C)ccc2S(=O)(=O)N([C@@H](C)CO)C[C@H]1C | ? | .
C[C@H]1CN([C@@H](C)CO)C(=O)c2cc(NC(=O)C3CC3)ccc2O[C@@H]1CN(C)C(=O)NC1CCCCC1 | 12.3 | 8.9
C[C@@H]1CN([C@@H](C)CO)C(=O)c2cc(NC(=O)Nc3ccc4c(c3)OCO4)ccc2O[C@@H]1CN(C)Cc1ccncc1 | 11.2 | 8.5
O=C(N[C@@H]1C=C[C@@H](CC(=O)N2CCc3ccccc3C2)O[C@@H]1CO)C1CC1 | 9.4 | -3.1
O=C(C[C@@H]1CC[C@H]2[C@@H](COC[C@@H](O)CN2C(=O)c2ccccc2)O1)N1CCOCC1 | 18.7 | 10.0
Cc1noc(C)c1NC(=O)Nc1ccc2c(c1)C(=O)N(C)[C@H]1CC[C@H](CC(=O)Nc3ccc4c(c3)CCCC4)O[C@@H]1CO2 | -11.1 | 1.7
CCCC#Cc1ccc([C@H]2[C@H]3CN(C(=O)Nc4ccc(F)cc4)CC(=O)N3[C@H]2CO)cc1 | ? | .
COCc1cn(CC[C@@H]2CC[C@H](NC(=O)c3ccc(F)cc3)[C@H](CO)O2)nn1 | 4.6 | 11.9
C[C@H]1CN([C@@H](C)CO)C(=O)Cc2cc(NS(C)(=O)=O)ccc2O[C@@H]1CN(C)C(=O)Nc1ccc(C(F)(F)F)cc1 | 23.2 | 14.6
CN1c2ccc(C#Cc3cccnc3)cc2[C@H]2[C@H](CCN2C(=O)C2CCCCC2)[C@H]1CO | -3.1 | 33.5
COCCNC(=O)C[C@H]1C[C@@H]2c3cc(NC(=O)Nc4ccccc4)ccc3O[C@@H]2[C@@H](CO)O1 | 8.0 | -0.7
CC(C)CC#Cc1ccc([C@@H]2[C@H]3CN(C(=O)Cc4ccccc4)CC(=O)N3[C@H]2CO)cc1 | ? | .
CC(C)CC#Cc1cnc2c(c1)C(=O)N([C@H](C)CO)C[C@H](C)[C@@H](CN(C)C(=O)c1cccnc1)O2 | 20.9 | 10.9
C[C@H](O)C#Cc1cnc2c(c1)C(=O)N([C@H](C)CO)C[C@H](C)[C@H](CN(C)CC1CCOCC1)O2 | 20.3 | 15.0
CCCC#Cc1ccc([C@H]2[C@@H](CO)N3CCCCN(S(=O)(=O)c4ccccc4F)C[C@H]23)cc1 | ? | .
C[C@@H]1CN([C@H](C)CO)C(=O)c2cccc(NC(=O)c3ccncc3)c2O[C@H]1CN(C)S(=O)(=O)c1cn(C)cn1 | 24.6 | 13.1
N#C[C@H]1[C@@H](c2ccccc2-c2ccccc2)[C@H](CO)N1C(=O)Cc1cccnc1 | -2.8 | 1.7
C[C@H]1CN([C@@H](C)CO)C(=O)c2cc(NC(=O)Cc3ccccc3)ccc2O[C@H]1CN(C)S(=O)(=O)c1ccccc1 | -10.6 | -2.1

Next compounds:
SMILES | Vaccinia inh | Vaccinia inh Venus
COCC(=O)N1CC2(C1)[C@@H](c1ccc(-c3ccccc3)cc1)[C@@H](CO)N2C(=O)COC | 20.5 | 14.2
COc1cccc(-c2cnc3c(c2)C(=O)N([C@@H](C)CO)C[C@H](C)[C@H](CN(C)Cc2ccccc2)O3)c1 | -7.8 | -1.5
CO[C@@H]1CN(C)C(=O)c2cc(NC(=O)CC(F)(F)F)ccc2OC[C@H](C)N(C(C)=O)C[C@H]1C | 6.6 | 15.7
C[C@H]1CN([C@@H](C)CO)C(=O)c2cccc(NC(=O)C3CC3)c2O[C@@H]1CN(C)S(=O)(=O)c1cccs1 | 4.2 | -1.2
CNC(=O)C[C@@H]1CC[C@H]2[C@@H](COC[C@H](O)CN2C(=O)Nc2ccc(Cl)c(Cl)c2)O1 | -4.4 | 0.4
CC(C)NC(=O)Nc1ccc2c(c1)C(=O)N([C@@H](C)CO)C[C@@H](C)[C@H](CN(C)S(C)(=O)=O)O2 | 9.1 | 4.8
C[C@H]1CN([C@@H](C)CO)C(=O)c2cc(C#Cc3ccccn3)cnc2O[C@@H]1CN(C)CC1CCOCC1 | 19.0 | 22.0
CCCC(=O)Nc1ccc2c(c1)C(=O)N(C)C[C@H](OC)[C@H](C)CN(Cc1cncnc1)[C@@H](C)CO2 | 5.6 | 2.6
O=C(Cc1ccccn1)N1[C@@H](CO)[C@@H]2c3ccccc3NC[C@@H]21 | 11.9 | 15.1
O=C1CN(Cc2ccccc2)C[C@@H]2[C@@H](c3ccc(Br)cc3)[C@@H](CO)N12 | ? | .
Cc1ccc(S(=O)(=O)N(C)C[C@@H]2OCCCC[C@@H](C)Oc3ccc(NS(C)(=O)=O)cc3C(=O)N([C@H](C)CO)C[C@H]2C)cc1 | -34.4 | -16.9
COc1ccc(CN(C)C[C@@H]2Oc3ccc(NS(=O)(=O)c4ccc(Cl)cc4)cc3CC(=O)N([C@@H](C)CO)C[C@H]2C)cc1 | -6.4 | -14.6
CO[C@H]1CN(C)C(=O)c2ccc(NC(=O)Nc3ccccc3F)cc2OC[C@H](C)NC[C@H]1C | -22.9 | -15.3
C[C@@H]1CN([C@H](C)CO)S(=O)(=O)c2ccc(-c3ccc(C(=O)N(C)C)cc3)cc2O[C@H]1CN(C)C(=O)Cc1ccccn1 | 11.1 | 10.6
CCCN(C)C[C@@H]1Oc2cc(C#Cc3ccccc3F)ccc2S(=O)(=O)N([C@H](C)CO)C[C@@H]1C | 2.4 | 8.7
CN(C)C(=O)[C@@H]1[C@@H](CO)[C@@H]2Cn3c(ccc(C4=CCCCC4)c3=O)[C@H]1N2Cc1ccccc1 | -7.1 | 0.0
CCC(=O)N1[C@@H]2c3ccc(-c4ccc(F)cc4)c(=O)n3C[C@H]1[C@H](CO)[C@H]2C(=O)N(C)C | 6.4 | 0.3
CC(C)NC(=O)Nc1ccc2c(c1)C(=O)N([C@@H](C)CO)C[C@@H](C)[C@H](CN(C)S(=O)(=O)c1cn(C)cn1)OCCCC[C@H](C)O2 | 23.2 | 17.2
C[C@H]1CCCCO[C@H](CN(C)S(=O)(=O)c2ccc(Cl)cc2)[C@@H](C)CN([C@@H](C)CO)C(=O)c2cc(NC(=O)Nc3ccc4c(c3)OCO4)ccc2O1 | -1.4 | 4.3
CC[C@@H](C)[C@@H](CO[C@@H](Cc1ccccc1)C(=O)N[C@@H](CCS(C)(=O)=O)C(=O)OC(C)C)NCC(N)CS (stereo partly specified) | -29.9 | -16.5
COc1cccc(S(=O)(=O)Nc2ccc3c(c2)C(=O)N(C)C[C@@H](OC)[C@H](C)CN(C(=O)Cc2cccnc2)[C@H](C)CO3)c1 | 29.4 | 14.5
CN(C)CC(=O)N1[C@H](CO)[C@H](c2ccc(C#CC3CC3)cc2)[C@@H]1C#N | -4.3 | -11.0
C[C@@H]1CCCCO[C@H](CN(C)Cc2ccc3c(c2)OCO3)[C@@H](C)CN([C@H](C)CO)C(=O)c2cc(NS(=O)(=O)c3ccc(F)cc3)ccc2O1 | 6.4 | -4.2
C[C@H]1CN([C@@H](C)CO)S(=O)(=O)c2ccc(C#CC3(O)CCCC3)cc2O[C@H]1CN(C)C(=O)c1ccccc1 | 3.8 | -0.4
C[C@H](CO)N1C[C@H](C)[C@@H](CN(C)C(=O)Nc2ccccc2)Oc2c(NC(=O)C3CCCCC3)cccc2C1=O | 12.8 | 8.3

Four entries picked at random from the list so far, as already listed:
SMILES | Vaccinia inh | Vaccinia inh Venus
CC(C)NC(=O)Nc1ccc2c(c1)C(=O)N([C@@H](C)CO)C[C@@H](C)[C@H](CN(C)S(=O)(=O)c1cn(C)cn1)OCCCC[C@H](C)O2 | 23.2 | 17.2
CC(C)CC#Cc1ccc([C@@H]2[C@H]3CN(C(=O)Cc4ccccc4)CC(=O)N3[C@H]2CO)cc1 | ? | .
C[C@H]1CN([C@@H](C)CO)C(=O)c2cc(NC(=O)C3CC3)ccc2O[C@@H]1CN(C)C(=O)NC1CCCCC1 | 12.3 | 8.9
COc1cccc(NC(=O)N[C@H]2CC[C@@H](CC(=O)N3CCCCC3)O[C@@H]2CO)c1 | 15.9 | 7.4

(more compounds)
SMILES | Vaccinia inh | Vaccinia inh Venus
CO[C@H]1CN(C)C(=O)c2ccc(NC(C)=O)cc2OC[C@@H](C)N(Cc2ccccc2F)C[C@@H]1C | -24.4 | -12.5
O=C(C[C@@H]1CC[C@H](NC(=O)C2CCOCC2)[C@H](CO)O1)NCc1ccncc1 | 13.4 | 8.3
C[C@H](CO)N1C[C@H](C)[C@H](CN(C)CC2CC2)OCc2cnnn2CCCC1=O | 12.8 | 13.7
C[C@@H]1CN([C@@H](C)CO)C(=O)c2cccc(NS(=O)(=O)c3ccc(F)cc3)c2O[C@H]1CN(C)Cc1ccc(C(F)(F)F)cc1 | -13.4 | -9.6
C[C@H]1CN([C@@H](C)CO)S(=O)(=O)c2ccc(C#CCC3CCCC3)cc2O[C@@H]1CN(C)C(=O)CC1CC1 | ? | .
CCCN1[C@@H]2c3ccc(-c4cccc(C(=O)N(C)C)c4)c(=O)n3C[C@@H]2[C@@H](CO)[C@@H]1C(=O)NCCOC | 3.2 | 0.0
COc1ccc(NC(=O)Nc2ccc3c(c2)C(=O)N([C@@H](C)CO)C[C@@H](C)[C@H](CN(C)Cc2ccccc2)OCCCC[C@H](C)O3)cc1 | ? | .
COc1ccc(S(=O)(=O)N[C@@H]2CC[C@@H](CCNC(=O)CN3CCOCC3)O[C@H]2CO)cc1 | 3.4 | 10.4
C[C@@H]1CCCCO[C@H](CN(C)C(=O)Nc2ccc(C(F)(F)F)cc2)[C@@H](C)CN([C@H](C)CO)C(=O)c2cc(NC(=O)Nc3ccccc3)ccc2O1 | -9.4 | -0.5
C[C@@H]1CN([C@H](C)CO)C(=O)c2cccc(NS(=O)(=O)c3ccc(F)cc3)c2O[C@H]1CN(C)Cc1ccc(C(=O)Nc2ccccc2N)cc1 | -6.2 | 4.0
CCNC(=O)[C@@H]1[C@@H](CO)[C@@H]2Cn3c(ccc(/C=C/c4ccccc4)c3=O)[C@H]1N2CC | -1.1 | 3.7
C[C@H](CO)N1C[C@H](C)[C@@H](CN(C)C(=O)Nc2cccc3ccccc23)Oc2c(NC(=O)c3ccc(-c4nccs4)cc3)cccc2C1=O | ? | .
C[C@H](CO)N1C[C@H](C)[C@@H](CN(C)C(=O)Nc2ccc(F)cc2)OCCCC[C@H](C)Oc2ccc(NS(=O)(=O)c3cccs3)cc2C1=O | -18.8 | -16.7
C[C@@H]1CN([C@@H](C)CO)C(=O)c2ccccc2-c2ccccc2CO[C@@H]1CN(C)S(=O)(=O)Cc1ccccc1 | 1.5 | -4.2
CCC(=O)Nc1ccc2c(c1)C(=O)N(C)C[C@@H](OC)[C@@H](C)CN(Cc1ccccn1)[C@H](C)CO2 | 8.0 | 3.1
O=C(c1ccc(F)cc1)N1CC(=O)N2[C@H](CO)[C@@H](c3ccc(/C=C/c4ccccc4)cc3)[C@@H]2C1 | 7.3 | 7.8
CO[C@H]1CN(C)C(=O)c2ccc(NC(=O)Nc3ccccc3F)cc2OC[C@H](C)N(C)C[C@H]1C | -9.5 | -20.0
C[C@@H]1CN([C@H](C)CO)C(=O)c2cc(Br)cnc2O[C@@H]1CN(C)CC1CC1 | -1.2 | -1.1
CC(C)CC#Cc1cnc2c(c1)C(=O)N([C@@H](C)CO)C[C@H](C)[C@@H](CN(C)Cc1ccccn1)O2 | 0.0 | -18.2
CC(C)C#Cc1ccc([C@@H]2[C@H](CO)N3CCCCN(CC4CC4)C[C@@H]23)cc1 | 11.0 | -2.7
O=C(C[C@@H]1CC[C@@H]2[C@H](COC[C@@H](O)CN2C(=O)c2ccc(F)cc2)O1)NCCCN1CCOCC1 | 5.3 | 10.8
CCC(=O)Nc1ccc2c(c1)OC[C@H](C)N(C(=O)Cc1cccnc1)C[C@@H](C)[C@@H](OC)CN(C)C2=O | 6.7 | 1.7
O=C(C[C@@H]1CC[C@@H]2[C@H](COC[C@@H](O)CN2C(=O)Nc2ccc(Cl)cc2)O1)N1CCCCC1 | -19.7 | -23.8
CC(C)NC(=O)Nc1cccc2c1O[C@H](CN(C)Cc1ccc3c(c1)OCO3)[C@H](C)CN([C@@H](C)CO)C2=O | -5.6 | -3.8
CCO[C@H]1OC(C(=O)N2CCN(Cc3ccc4c(c3)OCO4)CC2)=C[C@@H](c2cn(C(C)=O)c3ccccc23)[C@@H]1CCCO | -32.5 | -24.1
Cc1noc(C)c1NC(=O)NCC[C@@H]1CC[C@H](NC(=O)Nc2cccc(Cl)c2)[C@@H](CO)O1 | -7.4 | 2.6

Complete entries as entered above. Values in the order: Vaccinia inh	Vaccinia inh Venus
Record of Cc1noc(C)c1NC(=O)NCC[C@@H]1CC[C@H](NC(=O)Nc2cccc(Cl)c2)[C@@H](CO)O1 : -7.4	2.6
Record of CCCN1[C@@H]2c3ccc(-c4cccc(C(=O)N(C)C)c4)c(=O)n3C[C@@H]2[C@@H](CO)[C@@H]1C(=O)NCCOC : 3.2	0.0

Compound activity from PubChem.

A portion of the library; rates above refer to the full screens.
